VDR inh: inhibitors of human vitamin D receptor; VDR-SRC2-3 peptide fluorescence polarization, 2 h; 400,000 compounds, 0.93% hits; AID 504847; Potency, µM, for inactives: max response, negative = inhibition, usual class: inhibitors; P11473; active = well fitted inhibition curve with a large enough effect; inconclusive = small, poorly fitted or top-dose-only effect, or another doubt; inactive = no such curve, though single readings can be large or run the other way; also: series mostly up to about 120 µM
Target sequence (P11473 whole entry, looked up): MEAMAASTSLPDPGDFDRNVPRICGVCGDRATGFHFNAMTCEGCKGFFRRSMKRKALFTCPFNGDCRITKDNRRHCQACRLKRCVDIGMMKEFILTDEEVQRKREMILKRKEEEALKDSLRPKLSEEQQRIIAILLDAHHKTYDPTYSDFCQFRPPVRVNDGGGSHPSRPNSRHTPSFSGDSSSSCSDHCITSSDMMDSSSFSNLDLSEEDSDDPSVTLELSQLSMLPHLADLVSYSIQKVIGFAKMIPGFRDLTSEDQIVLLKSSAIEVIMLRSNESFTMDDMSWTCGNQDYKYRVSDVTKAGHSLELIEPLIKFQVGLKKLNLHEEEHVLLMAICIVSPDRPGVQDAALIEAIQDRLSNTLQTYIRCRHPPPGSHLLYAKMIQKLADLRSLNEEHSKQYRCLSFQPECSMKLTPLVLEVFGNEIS
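Compounds are added to VDR with labelled SRC2-3 coactivator peptide and held 2 h at room temperature. Inhibition of the VDR–peptide interaction is then read as a change in fluorescence polarization.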
Active calls of the source: *; ? = inconclusive; & = joins results of further samples. % is scaled to controls: 0 for no effect and ±100 for the full control effect; potency is read from the fitted curve at half-maximal effect.

SMILES	VDR inh
CCc1nc(N2CCN(Cc3ccc4c(c3)OCO4)CC2)c2oc3ccccc3c2n1	-6%
CCOC(=O)c1sc(NC(=O)Nc2ccc(Cl)cc2)nc1C	4%
CCOc1ccccc1NC(=O)CCS(=O)(=O)c1ccc(OC)cc1	-18%&-7%
O=C(CSc1nccn1-c1cccc(Cl)c1)NO	-19%
O=C(N/N=C/c1c(O)ccc2ccccc12)c1ccc(Br)o1	15%
C/C=C/C(=O)OCC(=O)Nc1ccc(OC)c(Cl)c1	8%
O=C(O)COc1ccccc1/C=N/NC(=O)CSc1nnc(SCc2ccccc2)s1	7%
NC(=O)c1c[nH]c2ccccc12	-20%
COc1ccc2c(c1)c(=O)c(C(=O)c1ccccc1)cn2CC(=O)Nc1ccc2c(c1)OCO2	-6%
CCCc1nc2cc(Cl)c([N+](=O)[O-])cc2o1	9%
CCN1CCN(C(=O)C2CCN(C(=O)Nc3ccccc3)CC2)CC1	-18%
Cc1cnc(C(=O)OCC(=O)c2ccc(F)cc2)cn1	-3%
CC(C)(C)CC(=O)N1CCN(c2ccc(S(=O)(=O)N3CCOCC3)cc2[N+](=O)[O-])CC1	-12%
O=C(Nc1cccc(C(=O)NC2CCCC2)c1)c1ccccc1	10%
CC(NC(=O)COC(=O)c1ccc2c(c1)OCO2)c1ccccc1 (stereo not drawn)	-12%
CCSc1nnc(CNc2ccc(C)cc2)n1C	-2%
CCC/C(=N\NC(=O)c1csc(C)c1C)c1cccs1	-14%
O=C(Cc1ccccc1)NNC(=O)Cc1ccccc1	16%
Cc1cc(C)cc(N(C(=O)CNS(=O)(=O)c2ccccc2)C(C(=O)NCc2ccccc2)c2ccc(C)o2)c1 (stereo not drawn)	-11%
CCOC(=O)Cc1csc(N(C)C)n1	0%
O=C(CNC(c1ccccc1)c1ccccc1)Nc1ccc(F)cc1	-2%
Cn1ncc2c(c(SCc3ccc(Cl)cc3Cl)nn2C)c1=O	?
S=C(Nc1ccccc1)Nc1ccccc1-n1cccc1	-4%
Cc1c(Cl)cccc1NC(=O)CCC(=O)N/N=C/c1ccc[nH]1	-12%
COc1cccc(-n2c(Cc3cc(=O)[nH]c(=O)[nH]3)nnc2SCC(=O)Nc2ccccc2)c1	-25%
The list goes on:
SMILES	VDR inh
O=C(Cc1ccc(Cl)c(Cl)c1)NNC(=S)NCC1CCCO1 (stereo not drawn)	-12%
Cc1cc(Br)ccc1NC(=O)CN(C)C(=O)c1ccc2ccccc2n1	-15%
CC(C)(C)C(=O)Oc1cccc(Nc2ncnc3ccccc23)c1	3%
CCNC(=O)COc1ccc(OCc2ccccc2)cc1	10%
CC(=O)Nc1ccc(S(=O)(=O)N(C)CC(=O)N/N=C/c2ccc(C(=O)O)cc2)cc1	-16%
COc1ccccc1NC(=O)C1CCN(S(=O)(=O)c2ccc3c(c2)NC(=O)CO3)CC1	3%
COc1cc(-c2noc(-c3cc(C)[nH]n3)n2)cc(OC)c1OC	6%
COc1ccccc1NS(=O)(=O)c1ccc(C)c(C(=O)N2CCCC2)c1	-16%
O=C(CN1CCCCC1)Nc1cc(Cl)ccc1Oc1ccccc1	1%
O=C(Cc1ccc(-n2c(=O)c3sccc3n(CC(=O)Nc3ccccc3)c2=O)cc1)NCc1ccco1	7%
O=C(NCCN1CCOCC1)c1ccc(=O)oc1	10%
Cc1cn([C@H]2C[C@H](O)[C@@H](CCC(=O)NCc3ccco3)O2)c(=O)[nH]c1=O	-13%
Cc1csc(NC(=O)CCc2c(C)nc3cc(-c4ccc(Cl)cc4)nn3c2C)n1	-8%
O=C(NCCN1CCOCC1)c1cnn2c(-c3ccccc3)cc(-c3ccccc3)nc12	5%
CN(C)c1ccc(Nc2nc(N)c([N+](=O)[O-])c(N3CCOCC3)n2)cc1	?
C[C@@H](CSc1ccccc1)CN1CC[C@H](NC(=O)OCc2ccccc2)CCC1=O	0%
CC(C)CN1CC2(CCN(C(=O)c3csnn3)CC2)C1	-3%
COc1ccc(S(=O)(=O)N2CCOC2CNC(=O)C(=O)NCCc2ccccc2OC)cc1C (stereo not drawn)	-6%
O=C(CCNS(=O)(=O)c1ccccc1F)NCc1ccc2c(c1)OCO2	2%
CC(C)(C)OC(=O)NCc1ccc(NC(=O)c2nc[nH]c2C(=O)NCCCCNC(=O)c2[nH]cnc2C(=O)Nc2ccc(CNC(=O)OC(C)(C)C)cc2)cc1	7%
COc1ccc(-c2noc(CN3CCCCC3c3nccn3C)n2)cc1 (stereo not drawn)	-19%
Cc1cc(Cl)ccc1OCC(=O)Nc1ccc(CN2CCOCC2)cc1	8%
CCOc1ccc(Nc2oc(-c3cccs3)nc2C#N)cc1	-2%
CCN(c1ccc(NC(=O)CCc2nc3sc4c(c3c(=O)[nH]2)CCCC4)cc1)C(C)C	-12%
O=C(c1ccc(NC2=NC3CS(=O)(=O)CC3S2)cc1)N1CCc2ccccc2C1 (stereo not drawn)	0%
Next section:
SMILES	VDR inh
CCOC(=O)C(C#N)=C1CCN(Cc2ccccc2)CC1	-15%
COc1ccc(-c2nc(NC(=O)CSc3nnc4ccccn34)ns2)cc1	2%
CCC(=O)c1ccc(OCC(O)CN2CCN(S(=O)(=O)N3CCCCC3)CC2)cc1 (stereo not drawn)	5%
CCc1ccccc1Oc1ccc(S(=O)(=O)N2CCN(C)CC2)cn1	7%
CC(=O)Nc1ccccc1OCC(=O)NC(C)c1ccccc1 (stereo not drawn)	-1%
O=C(CNC1CCCCC1)Nc1cccc(C(F)(F)F)c1	-1%
Cc1ccccc1NS(=O)(=O)c1nnc(NC(=O)c2ccccc2C)s1	4%&10%
NC(=S)N/N=C/c1ccc([N+](=O)[O-])cc1	-7%
Cc1cc(C(=O)CSc2nc(N)cc(N)n2)c(C)n1-c1cccc(F)c1	-6%
Cc1ccc(C)c(NC(=O)CCN2CCOCC2)c1	-3%
CCCc1cc(NC(=O)COC(=O)c2nccnc2N)n(-c2ccccc2)n1	3%
CC(=O)Nc1sc(-c2ccccc2)nc1-c1ccccc1	-8%
Cc1ccc(S(=O)(=O)CC2CSc3nc4ccccc4n32)cc1 (stereo not drawn)	-8%
COc1ccc(NC(=O)c2ccc3c(c2)N(Cc2cccc(Cl)c2)C(=O)c2ccccc2S3=O)cc1Cl (stereo not drawn)	1%
C=CCc1cccc2cc(C(=O)N3CCN(C(=O)c4ccco4)CC3)c(=O)oc12	9%
CC1(C)CC(=O)/C(=C(\O)Cc2ccccc2)C(=NCCCCCC(=O)O)C1	?
CC(=O)c1c[nH]c(C(=O)NCc2ccccc2Cl)c1	1%
CC1(c2ccccc2Cl)NC(=O)N(CC(=O)N2CCc3ccccc3C2)C1=O (stereo not drawn)	10%
CCOc1ccc(S(=O)(=O)N2CCN(CN3C(=O)CC4(CCCC4)C3=O)CC2)cc1	18%
CN(C)P(=O)(Nc1cccc2ccccc12)Nc1cccc2ccccc12	-25%
CCOc1cc(S(=O)(=O)NCCc2cccc(C)c2)c(OCC)cc1-n1cnnn1	12%
COc1cccc(/C=C/C(=O)c2cccc([N+](=O)[O-])c2)c1OC	8.9µM*
Cc1cc(C)cc(NC(=O)Nc2ccc3c(c2)N(C)C(=O)CS3)c1	-33%
Cc1cccc(OCC(=O)Nc2ccc3c(c2)C(=O)NC3=O)c1	1%
COc1ccc(/C=N/NC(=O)c2ccc(=O)n(C)c2)cc1OC	-7%
Additional structures
SMILES	VDR inh
Cc1cc(C)cc(NC(=O)C2C3C=CC4(O3)C2C(=O)N(CCN2CCCCC2)C4C(=O)NC2CCCCC2)c1 (stereo not drawn)	?
O=[N+]([O-])c1ccc(N/N=C/c2c[nH]c3ccccc23)c(S(=O)(=O)Nc2ccc(Cl)cc2)c1	-3%
CCC(=O)Nc1ccc(NC(=O)c2cccc3c(Br)cccc23)cc1	-4%
CCOC(=O)Cn1nnc2c(sc3nc4c(c(-c5ccc(Cl)cc5)c32)CCC4)c1=O	7%
C/C(=N\NC(=O)c1ccoc1C)c1ccccc1O	-7%
O=C(COC(=O)c1cnccn1)c1ccc(OC(=O)c2ccccc2)cc1	-10%
CCC(Sc1nc2c(cnn2-c2ccc(Cl)cc2)c(=O)[nH]1)C(=O)OC (stereo not drawn)	-17%
O=c1ccc(-c2ccccc2)nn1Cc1ccc(Cl)cc1	-6%
CSc1cccc(NC(=O)/C=C/c2ccco2)c1	-26%
C=CCc1ccccc1OCC(O)CN1CCN(CCO)CC1 (stereo not drawn)	1%
Cc1cccc(NC(=O)c2ccc(N3CCCCC3)c([N+](=O)[O-])c2)n1	-4%
NS(=O)(=O)c1ccc(CNC(=O)/C=C/c2ccc(S(=O)(=O)N3CCOCC3)cc2)cc1	-9%
Cc1ccccc1C(=O)NC(=S)NC1CC1	-1%
CCCCN(C)CCCNC(=O)C1CCN(S(=O)(=O)CCC)CC1	-2%
CC=C(/C(=C/C)c1ccc(O)cc1)c1ccc(O)cc1	-25%
CC1CN(S(=O)(=O)c2ccc(CN3C(=O)c4cccnc4C3=O)s2)c2ccccc2O1 (stereo not drawn)	-9%
CCOC(=O)C1CCN(C(=O)c2ccc(C)c(S(=O)(=O)N3CCCC3)c2)CC1	6%
O=C(Cc1n[nH]c(=O)[nH]c1=O)N/N=C/c1ccccc1	-3%
CCCCn1c(-c2ccc(Br)cc2F)nc2c1c(=O)[nH]c(=O)n2CC(C)C	-16%
Cc1cc(C)n(-c2nc3ccccc3nc2Nc2cccc(C(=O)NCCc3ccccc3)c2)n1	10%
O=C(Nc1cccc(S(=O)(=O)N2CCCCC2)c1)C1COc2ccccc2O1 (stereo not drawn)	12%
CC1CCCN(C(=O)Cn2nnc(-c3ccc(N(C)C)cc3)n2)C1 (stereo not drawn)	-3%
C/C=C/C1=CC2=CC(=O)C(C)(OC(=O)c3c(C)cc(O)cc3O)C(=O)C2=CO1 (stereo not drawn)	?
Cc1ccc(C)c2c3c([nH]c12)-c1nonc1CC3	-14%
CCC(C)n1c(SCC(=O)Nc2ccccc2C(=O)OC)nc2ccsc2c1=O (stereo not drawn)	-5%
(next part)
SMILES	VDR inh
O=C(Nc1nc2nc(-c3ccccc3)cc(=O)n2[nH]1)c1ccccc1	3%
Cc1csc(NC(=O)c2cccs2)n1	4%
CCOc1ccc(-n2nnc3c(=O)n(CC(=O)NCc4ccco4)cnc32)cc1	3%
CCS(=O)(=O)N1Cc2ccccc2CC1C(=O)Nc1ncc(C)s1 (stereo not drawn)	-16%
COc1ccc2nc(NC(=O)c3cc(=O)c4cc(C)cc(C)c4o3)sc2c1	5%
Cc1sc(NC(=S)NC(=O)c2ccco2)c(C(N)=O)c1C	7%
O=C(O)Cc1csc(-c2ccccc2)n1	1%
COCCCNC(=O)Cn1ncc2ccsc2c1=O	7%
Cc1ncc(CO)c(/C=N/NC(=S)Nc2ccc(Cl)c(Cl)c2)c1O	?
[2H]c1c([2H])c([2H])c(-c2nc(N3CCCCCC3)sc2C(=O)c2ccccc2)c([2H])c1[2H]	6%
COc1cc(OC)cc(/C(N)=N/O)c1	-17%
Cn1c(=O)c2[nH]c(COc3ccc(C(C)(C)C)cc3)nc2n(C)c1=O	-15%
CC(C)(C)c1ccc(C(=O)CCC(=O)NCc2ccccc2)cc1	-9%
Cc1cccc(C(=O)OCC(=O)NC(C)C2CC3CCC2C3)c1O (stereo not drawn)	-12%
CC(=O)Nc1ccc(C(=O)NC(CC(=O)O)c2ccc(Cl)cc2)cc1 (stereo not drawn)	3%
CSc1nc(N)nc(SCC(=O)c2ccccc2)c1C#N	12%
Cc1ccc(NC(=O)CCn2nc(C)cc2C)c(C)c1	-16%
COc1ccccc1CN(Cc1cc2cc3c(cc2[nH]c1=O)OCCO3)Cc1nnnn1Cc1ccco1	?
CCOC(=O)c1cc(=O)n2[nH]c(-c3ccc(C)cc3)cc2n1	6%
Cc1ccc2c(c1)nnn2C1CCN(S(=O)(=O)c2ccc(C(=O)NC3CCCC3)cc2)CC1	-10%
CCCN1CCN(CC(O)COC(c2ccc(OC)cc2)c2ccc(OC)cc2)CC1 (stereo not drawn)	-12%
CCOc1cccc2c1OC(c1cc(OC)c(OC)c(OC)c1)N1N=C(c3ccc(C)o3)CC21 (stereo not drawn)	7%
CC1CN(c2ccccc2)c2nc3c(c(=O)[nH]c(=O)n3C)n2C1 (stereo not drawn)	6%
O=C(CSc1nnnn1C1CC2C=CC1C2)Nc1ccc(C(=O)O)cc1 (stereo not drawn)	-12%
O=C1CCCc2nc(N3CCc4ccccc43)ncc21	22%

Sorted by count of non-hydrogen atoms (highest first): some entries from above.
SMILES	VDR inh
COc1ccccc1CN(Cc1cc2cc3c(cc2[nH]c1=O)OCCO3)Cc1nnnn1Cc1ccco1	?
CCCN1CCN(CC(O)COC(c2ccc(OC)cc2)c2ccc(OC)cc2)CC1 (stereo not drawn)	-12%
Cc1cccc(C(=O)OCC(=O)NC(C)C2CC3CCC2C3)c1O (stereo not drawn)	-12%
CCOC(=O)c1cc(=O)n2[nH]c(-c3ccc(C)cc3)cc2n1	6%
Cc1ccc(NC(=O)CCn2nc(C)cc2C)c(C)c1	-16%
COc1cc(OC)cc(/C(N)=N/O)c1	-17%

Other results
SMILES	VDR inh
Cc1c(C(=O)N2CCNCC2)oc2ccccc12	-1%
CCOC(=O)c1nc(-c2ccc3c(c2)OCO3)[nH]c1C	-16%
Cc1ccc(CNC(=O)C(Cc2ccccc2)NS(=O)(=O)c2cccs2)cc1 (stereo not drawn)	15%
CCCCOC(=O)c1ccc(NC(=O)c2cnc3ccc(C)cn3c2=O)cc1	-8%
CCCC(=O)N1CCN(Cc2ccc3c(c2)OCO3)CC1	-3%
CC(C)c1ccc(NC(=O)CCCN2C(=O)NC(C)(C)C2=O)cc1	7%
CCOc1cc(N2CCOCC2)c(OCC)cc1NC(=O)COC(=O)c1ccc(Cl)nc1	12%
COc1ccc(S(=O)(=O)N2CCCCC2)cc1NC(=O)CNc1ccccc1N1CCCC1=O	-1%

Some of the entries so far, bar-delimited:
canonical_smiles | VDR inh
CCOC(=O)c1nc(-c2ccc3c(c2)OCO3)[nH]c1C | -16%
Cc1ccc(CNC(=O)C(Cc2ccccc2)NS(=O)(=O)c2cccs2)cc1 (stereo not drawn) | 15%
CCCCOC(=O)c1ccc(NC(=O)c2cnc3ccc(C)cn3c2=O)cc1 | -8%
CCCC(=O)N1CCN(Cc2ccc3c(c2)OCO3)CC1 | -3%

A portion of the library, so the mix of outcomes need not match the whole.
